# Mtb growth: M. tuberculosis H37Rv growth inhibitors, H37Rv strain (AID 1626). 220,000 tested, 0.95% active. M. tuberculosis H37Rv growth inhibition; higher % means a stronger effect. inhibition, % at 10 µM; hits with a dose series show IC50 in µM;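 active = confirmed in a dose series; inconclusive = inhibition above 80% but not taken into the dose series; inactive = below 80% or under 30% at every dose of the series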;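 note: bacteria incubated seven days before Alamar blue readout; 0% = bacteria only wells and 100% = bacteria with antibiotic wells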
# Mtb betalactam: beta-lactam sensitization of Mtb H37Rv; M. tuberculosis H37Rv growth with meropenem, percent inhibition; hits of this screen are not shown here; inhibition, % at 25 µM; 330,000 tested, 0.27% active;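 active = about 74% or more and at least 40 points above the plate without the antibiotic, then above 30% in a dose series; inconclusive = first-round hits that could not be retested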;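 note: growth measured after seven days incubation then overnight dye step; 0% = bacteria only wells and 100% = bacteria with antibiotic; twin plates without the antibiotic show which effects depend on it; some results filed as inactive read as strong as hits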
# Arbovirus inh: blocks arbovirus infection. inhibition, % at 10 µM. arbovirus infection cell-based antiviral screen. 200,000 tested, 0.37% active;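 active = inhibition from about 30%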;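 note: bluetongue infection of BSR cells; cell survival read as ATP light after 72 h; 0% = infected wells without compound and 100% = uninfected wells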
# YopH PTP inh: YopH (Yersinia) phosphatase inhibition; fluorescence Ex485/Em525; inhibition, %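 (about 10 µM by stock and volumes)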; 140,000 tested, 0.16% active; AID 898;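 active = inhibition of 50% or more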;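 note: controls were vehicle for no effect and minimum signal wells for full effect; inactives centre near -20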
# RecA intein inh: Mtb RecA intein splicing inhibition; P9WHJ3; cell-free RecA intein splicing, fluorescence; inhibition, %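 (about 9 µM by stock and volumes)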; 290,000 tested, 0.75% active; in the data active = inhibition above about 30%; inconclusive = no clear call, values can overlap the other calls;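 note: 0% = vehicle wells and 100% = reference inhibitor control wells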
# Target sequence (P9WHJ3 whole entry, looked up): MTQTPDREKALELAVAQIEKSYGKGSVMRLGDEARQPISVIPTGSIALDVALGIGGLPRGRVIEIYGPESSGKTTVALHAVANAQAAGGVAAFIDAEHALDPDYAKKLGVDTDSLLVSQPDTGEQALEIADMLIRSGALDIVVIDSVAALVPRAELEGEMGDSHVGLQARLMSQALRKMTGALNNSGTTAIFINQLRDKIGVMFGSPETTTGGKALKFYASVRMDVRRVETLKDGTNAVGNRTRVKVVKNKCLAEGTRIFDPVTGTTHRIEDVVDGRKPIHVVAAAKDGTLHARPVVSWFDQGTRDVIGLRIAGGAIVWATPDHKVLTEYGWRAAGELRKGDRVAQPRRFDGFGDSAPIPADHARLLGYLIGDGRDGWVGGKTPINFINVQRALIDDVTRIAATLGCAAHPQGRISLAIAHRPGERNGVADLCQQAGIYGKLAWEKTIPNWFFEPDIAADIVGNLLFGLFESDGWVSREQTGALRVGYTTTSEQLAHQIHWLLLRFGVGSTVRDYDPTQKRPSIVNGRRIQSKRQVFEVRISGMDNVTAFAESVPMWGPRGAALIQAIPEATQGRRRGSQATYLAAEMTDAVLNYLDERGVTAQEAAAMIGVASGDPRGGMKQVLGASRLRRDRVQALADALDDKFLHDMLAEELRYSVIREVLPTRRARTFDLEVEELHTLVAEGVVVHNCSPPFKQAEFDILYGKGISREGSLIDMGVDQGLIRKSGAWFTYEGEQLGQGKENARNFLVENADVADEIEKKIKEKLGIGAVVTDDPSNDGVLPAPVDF
# Arbovirus inh repeat: also measured in Arbovirus inh; calls as there; inhibition, %; measured here: 10K subset replicate screen; many hits read low in the repeat;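 first of two repeat runs on a subset; 0% = infected and 100% = uninfected wells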
# An asterisk follows results filed as active; i = inactive; ? = inconclusive; . = no result given.
# The first four compounds (preview)
SMILES,Mtb growth,Mtb betalactam,Arbovirus inh,YopH PTP inh,RecA intein inh,others
Cc1ccc(S(=O)(=O)CC(=O)c2ccc(C)c([N+](=O)[O-])c2)cc1,2%,-21,1,-23,-0.7,
COc1ccc(C2Nc3ccccc3C(=O)N2NS(=O)(=O)c2ccccc2)c(OC)c1 (stereo not drawn),.,9,.,.,-4.0,
COc1cc(C(=O)N2CCC(NC(=O)C(Cc3ccc(C(C)C)cc3)NC(C)=O)CC2)cc(OC)c1OC (stereo not drawn),-6%,-2,-4,-103,-2.7,
CN1CCN(C(=O)CN(C2CCCCC2)S(=O)(=O)c2ccc(Br)cc2)CC1,.,?,.,.,0.4,

# The whole of this part, previewed entries included:
SMILES,Mtb growth,Mtb betalactam,Arbovirus inh,YopH PTP inh,RecA intein inh,others
Cc1ccc(S(=O)(=O)CC(=O)c2ccc(C)c([N+](=O)[O-])c2)cc1,2%,-21,1,-23,-0.7,
COc1ccc(C2Nc3ccccc3C(=O)N2NS(=O)(=O)c2ccccc2)c(OC)c1 (stereo not drawn),.,9,.,.,-4.0,
COc1cc(C(=O)N2CCC(NC(=O)C(Cc3ccc(C(C)C)cc3)NC(C)=O)CC2)cc(OC)c1OC (stereo not drawn),-6%,-2,-4,-103,-2.7,
CN1CCN(C(=O)CN(C2CCCCC2)S(=O)(=O)c2ccc(Br)cc2)CC1,.,?,.,.,0.4,
CCOc1ccc(C(=O)NNC2CC(=O)N(Cc3ccc(Cl)cc3)C2=O)cc1OC (stereo not drawn),4%,-2,0,.,1.0,
CN(C)c1ccc(C(=O)c2ccccc2C(=O)O)cc1[N+](=O)[O-],4%,-1,4,.,1.8,
Cc1[nH]c2ccc(F)cc2c1CCN(Cc1ccco1)C(=S)NC(C)(C)C,3%,0,-2,.,7.2,
Cc1cc(SCC(=O)N2CCCC2)nc2ccccc12,-7%,-2,-2,-44,-5.8,
CCC(C)NC(=O)C1(NC(=O)Nc2ccccc2)CCCCC1 (stereo not drawn),8%,-2,13,.,0.0,
Cc1ccc(S(=O)(=O)N(C)CC(=O)N2CCCC2)cc1,4%,10,5,-3,0.0,
CCn1c(SCC(=O)Nc2cc(S(=O)(=O)N3CCOCC3)ccc2OC)nnc1-c1ccncc1,-3%,2,0,.,0.6,
COC(=O)c1ccc(C2NC(C(=O)O)CS2)cc1 (stereo not drawn),-9%,?,11,-19,1.3,
CCN(CC)S(=O)(=O)c1cccc(-c2n[nH]c(=S)n2CC(C)C)c1,-7%,-4,-2,.,-0.6,
O=C(Nc1cc([N+](=O)[O-])ccc1O)c1cccc([N+](=O)[O-])c1,.,10,.,.,-2.1,
Cc1c(NC(=O)c2ccc3nsnc3c2)cccc1[N+](=O)[O-],.,4,.,.,0.3,
CC1CCCN(S(=O)(=O)c2ccc(NC(=O)C3CC(=O)N(C(C)(C)C)C3)cc2)C1 (stereo not drawn),.,-7,.,.,-0.2,
O=C(CSc1nnc2ccccn12)Nc1ncc(Cl)cc1Cl,-8%,-1,10,-20,-2.7,
Cn1ccc(C(=O)N/N=C/c2c[nH]c3ccccc23)n1,.,-7,.,.,0.8,
CCC(C)N(C(=O)Cn1c(Cl)nc2c1c(=O)n(C)c(=O)n2C)C1CCS(=O)(=O)C1 (stereo not drawn),.,-17,.,.,-4.1,
COc1cc(C(=O)NCC(c2cccs2)N(C)C)cc(Cl)c1OC(C)C (stereo not drawn),6%,-8,-7,-6,-0.3,
CC(O)(CS(=O)(=O)Cc1cccc(C(F)(F)F)c1)C(=O)Nc1cccc(C(F)(F)F)c1 (stereo not drawn),3%,-2,-9,-49,1.1,
COC(=O)Cc1c(O)ccn(Cc2ccc(OC)c(OC)c2)c1=O,-1%,-2,0,.,-1.5,
COc1cc2c(cc1OC)C(c1ccc(OC)c(OC)c1OC)CC(=O)N2 (stereo not drawn),.,-1,.,.,-2.0,
O=C(COC(=O)c1ccco1)c1ccc(Cl)cc1,.,5,.,.,1.4,
CCOCCCn1c(=NC(C)=O)c(C#N)cc2c(=O)n3ccccc3nc21,10%,-6,.,.,i,
Cc1cc(=O)[nH]c(SCC(=O)c2ccc3c(c2)NC(=O)CO3)n1,1%,-2,.,.,-0.9,
Cc1cc(-c2ccc(S(=O)(=O)N3CCN(c4cccc(C(F)(F)F)c4)CC3)s2)on1,.,-8,.,.,-3.0,
CN(C)c1nc2ccccc2c(N)c1-c1ccccc1,-5%,?,5,-10,.,
CN(C)c1ccc(/C=C2/NC(=O)NC2=O)cc1,1%,2,-5,15,-10,
O=C(COc1cc2oc(=O)c3c(c2cc1Cl)CCC3)NCCCN1CCOCC1,.,0,.,.,3.0,
CC(=O)N/C(=C\c1cccs1)C(=O)O,-7%,-2,15,.,.,
Cn1c(N=NC(=O)c2ccccc2)c(O)c2ccccc21,10%,5,-8,-17,-2.4,
COC(=O)c1[nH]c2ccccc2c1NC(=O)CN1CCCCCC1,3%,-12,4,-17,-0.6,
Oc1ccc2ccccc2c1C=Nc1ccccc1-c1nc2ccccc2[nH]1,3%,3,-6,-10,-9.7,
CCOC(=O)N1CCN(Cc2nc3cc([N+](=O)[O-])ccc3n2C)CC1,.,3,.,.,-1.1,
COC(=O)c1ccc(CN2C(=O)NC(CC(C)C)C2=O)cc1 (stereo not drawn),2%,0,7,.,-2.0,

# As a working copy, two of the compounds above.
SMILES,Mtb growth,Mtb betalactam,Arbovirus inh,YopH PTP inh,RecA intein inh,others
CCOC(=O)N1CCN(Cc2nc3cc([N+](=O)[O-])ccc3n2C)CC1,.,3,.,.,-1.1,
COC(=O)c1ccc(CN2C(=O)NC(CC(C)C)C2=O)cc1 (stereo not drawn),2%,0,7,.,-2.0,

# Continuation.
SMILES,Mtb growth,Mtb betalactam,Arbovirus inh,YopH PTP inh,RecA intein inh,others
CC(=O)Nc1ccc(NC(=O)CSc2nnc3ccc(-c4ccc(F)cc4)nn23)cc1,4%,-11,6,.,0.1,
Cc1cccc(NC(=S)NC(=O)c2ccco2)c1C,.,-13,.,.,0.7,
COc1ccc(CCNC(=O)c2cccc3c2C(=O)N(C2CCCCC2)C3)cc1OC,.,2,.,.,2.4,
Cc1ccc(C)c(C(=O)CSc2nnnn2-c2cccnc2)c1,3%,60,4,-22,5.3,
O=C(Nc1nnc(Cc2ccc([N+](=O)[O-])cc2)s1)Nc1ccccc1F,-4%,3,3,.,-0.5,
CCOc1ccc(-c2cc(NC(=O)Cn3ncc4c3-c3ccccc3OC4)on2)cc1OCC,8%,5,0,.,0.5,Arbovirus inh repeat=10
O=C(Cc1cccs1)Nc1cccc(C(=O)Nc2ccc(C(=O)O)cc2)c1,-3%,-5,3,.,0.1,
Cc1ccc2nc(Cc3ccc(N)cc3)oc2c1,5%,-5,-4,-33,0.9,
Cc1oc2ccc(OCc3cccc(Cl)c3)cc2c1C(=O)O,.,11,.,.,-0.9,
O=c1[nH]c2cc3c(cc2cc1CN(Cc1nnnn1C1CCCC1)C1CCCC1)OCCO3,-4%,21,1,-23,-2.0,
COc1ccc(C[C@H]2CN3C(=NC[C@@H]3Cc3ccccc3)N2CCNC(=O)CCC2CCCCC2)cc1,9µM*,100,-22,.,2.9,
COc1ccc(C)cc1NC(=O)CN1CCN(CC(=O)Nc2ccccc2F)CC1,.,0,-3,-18,2.4,
COC(=O)Cn1c(=NC(=O)c2cccc(OC)c2)sc2cc(OC)ccc21,-2%,0,2,-30,-23,
COC(=O)Cn1c2[n+](c3ccccc31)CC(O)CS2 (stereo not drawn),-1%,-9,12,-25,-1.6,
CCN(CC)CCCNC(=O)C1CCCN(c2nnc(N3CCCC3=O)s2)C1 (stereo not drawn),-5%,-2,0,-10,-1.1,
O=[N+]([O-])c1ccc(O)c(C(C#Cc2ccccc2)N2CCOCC2)c1 (stereo not drawn),-5%,6,.,.,2.2,
Cc1noc(C)c1COc1ccccc1C(=O)NNC(=O)c1ccccc1,.,-11,.,.,-1.3,
OC1C2(Cc3ccccc3)CN3CCN(C2)CC1(Cc1ccccc1)C3 (stereo not drawn),13%,-15,18,-24,-2.5,
CCc1cccc(NC(=O)CN(C)S(=O)(=O)c2cccs2)c1,-3%,1,3,.,-2.5,
O=C(COC(=O)C1COc2ccccc2O1)Nc1cccc(S(=O)(=O)N2CCCCC2)c1 (stereo not drawn),11%,-4,21,.,1.9,
CCC(=O)Nc1cccc(NC(=O)c2cccc([N+](=O)[O-])c2C)c1,12%,1,0,-21,-0.7,
COc1ccc(-c2nnc(SCC(=O)c3ccc[nH]3)o2)cc1,4%,47,5,10,-5.2,
Cc1csc(NC(=O)CN2C(=O)C3CC=CCC3C2=O)n1 (stereo not drawn),2%,-18,31*,-17,-0.6,
CN(C)CCOC1c2ccccc2CSc2ccccc21 (stereo not drawn),.,3,.,.,-0.9,

# Among those listed so far, six have fluorine.
SMILES,Mtb growth,Mtb betalactam,Arbovirus inh,YopH PTP inh,RecA intein inh,others
Cc1[nH]c2ccc(F)cc2c1CCN(Cc1ccco1)C(=S)NC(C)(C)C,3%,0,-2,.,7.2,
CC(O)(CS(=O)(=O)Cc1cccc(C(F)(F)F)c1)C(=O)Nc1cccc(C(F)(F)F)c1 (stereo not drawn),3%,-2,-9,-49,1.1,
Cc1cc(-c2ccc(S(=O)(=O)N3CCN(c4cccc(C(F)(F)F)c4)CC3)s2)on1,.,-8,.,.,-3.0,
CC(=O)Nc1ccc(NC(=O)CSc2nnc3ccc(-c4ccc(F)cc4)nn23)cc1,4%,-11,6,.,0.1,
O=C(Nc1nnc(Cc2ccc([N+](=O)[O-])cc2)s1)Nc1ccccc1F,-4%,3,3,.,-0.5,
COc1ccc(C)cc1NC(=O)CN1CCN(CC(=O)Nc2ccccc2F)CC1,.,0,-3,-18,2.4,

# Later entries:
SMILES,Mtb growth,Mtb betalactam,Arbovirus inh,YopH PTP inh,RecA intein inh,others
O=C(C1CCCN(S(=O)(=O)c2cccc3nonc23)C1)N1CCN(c2ccccc2Cl)CC1 (stereo not drawn),7%,3,-1,-24,6.8,
COc1cc(OC)c(-n2cc(-c3ccc(OC)c(OC)c3)[nH]c2=S)cc1Cl,.,3,.,.,-3.2,
CN(C)CCCN(C(=O)c1cc(Cl)sc1Cl)c1nc2cc3c(cc2s1)OCO3,.,0,.,.,2.8,
CCCCCn1c(CN2CCN(C(=O)c3ccco3)CC2)nc2c1c(=O)n(C)c(=O)n2C,-9%,2,1,.,1.2,Arbovirus inh repeat=-2
Cc1cccnc1NC(=O)c1c(O)c2cccc3c2n(c1=O)CCC3,-1%,.,1,12,-4.0,
CCN(C(=O)Cn1c(=O)oc2ccccc21)C1CCS(=O)(=O)C1 (stereo not drawn),4%,-1,6,-2,2.4,
N/C(=N\OC(=O)c1cccc(Cl)c1)c1ccccn1,11%,3,3,-15,-2.1,
O=C(O)c1ccc(NCCc2ccc(Cl)cc2)c([N+](=O)[O-])c1,3%,-2,13,.,5.9,
CCn1c(=O)c(C(=O)NNS(=O)(=O)c2ccc(NC(=O)OC)cc2)c(O)c2ccccc21,.,4,.,.,-3.8,
CC(C)N1CCN(Cc2cccn2-c2nccs2)CC1CCO (stereo not drawn),-12%,-5,-1,.,-1.3,
Cc1cc(Cl)c(OCCOCCN2CCCC(C)C2)c(Br)c1 (stereo not drawn),2%,16,15,.,-0.2,
CSc1nnc(CCNS(=O)(=O)c2ccccc2Br)n1C,.,3,.,.,-8.4,

# Looked up one by one from the list above, three records:
SMILES,Mtb growth,Mtb betalactam,Arbovirus inh,YopH PTP inh,RecA intein inh,others
COc1cc(C(=O)N2CCC(NC(=O)C(Cc3ccc(C(C)C)cc3)NC(C)=O)CC2)cc(OC)c1OC (stereo not drawn),-6%,-2,-4,-103,-2.7,
Cc1cccc(NC(=S)NC(=O)c2ccco2)c1C,.,-13,.,.,0.7,
OC1C2(Cc3ccccc3)CN3CCN(C2)CC1(Cc1ccccc1)C3 (stereo not drawn),13%,-15,18,-24,-2.5,

# High-throughput results from PubChem.

# The list is partial, so the mix of outcomes need not match the whole.
